Screens as filed in PubChem BioAssay.
MARV entry inh = qHTS for inhibitors of binding or entry into cells for Marburg Virus; hit rate 1.8% among 300,000; Marburg virus pseudotyped entry inhibition, cell reporter; control for the full effect not named in the record; about a third of the inactives were read at about 46 µM; Potency, µM (doses to about 37.8 µM), inactives show top-dose activity change, negative = inhibition, hits mostly inhibitors; active = well fitted inhibition curve with a large enough effect; inconclusive = small, poorly fitted or top-dose-only effect, or effect the other way; inactive = flat fitted curve, though single readings scatter; tested in HEK293 cells; about a fifth of its hits are not listed in these tables; also: % is scaled to controls: 0 for no effect and ±100 for the full control effect; luciferase read-out
NS1 inh = qHTS Assay for Inhibitors of Influenza NS1 Protein Function; S. cerevisiae slowed by influenza A NS1, growth recovery by OD600; Potency, µM (highest dose often 46.1 µM), for the others: at the top dose activity, positive = more growth; hit rate 0.4% among 270,000; AID 2326, 2010; also: actives are rising curves; nearly all actives have a fitted effect of over 50% in size
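Recovery from NS1-induced slow growth read by OD600 in budding yeast switched to galactose assay medium (pH 6.0, -URA) at 1:100 dilution. Compound 23 nl per well; the matching strain lacking NS1 serves as control.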
Cruzain Triton = qHTS Assay for Promiscuous and Specific Inhibitors of Cruzain (with detergent) | Cruzipain (Trypanosoma cruzi), P25779 | purified cruzain, Z-FR-AMC fluorescence, 0.01% Triton | hit rate 0.43% among 200,000 | Potency, µM, for the others: max response, negative = inhibition, actives largely listed as inhibitors | AID 1478, 2009; active = well fitted curve in the direction sought with a large enough effect; inconclusive = small, poorly fitted or top-dose-only effect, or another doubt; inactive = no such curve, though single readings can be large; an effect the other way counts as inactive or inconclusive;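 also: plate controls were neutral wells for no effect and buffer without enzyme for full effect; nearly all actives have a fitted effect of over 40% in size; top concentration of the series not given in the record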
Target sequence (P25779 123-467 limits assumed): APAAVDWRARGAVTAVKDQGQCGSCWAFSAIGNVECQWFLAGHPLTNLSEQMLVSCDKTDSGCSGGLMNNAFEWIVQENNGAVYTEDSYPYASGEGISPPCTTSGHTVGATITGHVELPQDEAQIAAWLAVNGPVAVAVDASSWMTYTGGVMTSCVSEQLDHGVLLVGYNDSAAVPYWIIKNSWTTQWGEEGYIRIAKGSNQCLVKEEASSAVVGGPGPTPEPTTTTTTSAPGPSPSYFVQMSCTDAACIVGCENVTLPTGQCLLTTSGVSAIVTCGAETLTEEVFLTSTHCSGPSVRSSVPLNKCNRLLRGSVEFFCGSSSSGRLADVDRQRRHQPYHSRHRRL
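Sodium acetate buffer (100 mM, pH 5.5) containing 5 mM DTT and 0.01% Triton X-100 hosted 1.5 nM cruzain and test compound for 15 min at room temperature. Cleavage of 2 uM Z-FR-AMC was then tracked by fluorescence.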
SARS PLpro yeast = qHTS of Yeast-based Assay for SARS-CoV PLP; hit rate 0.19% among 330,000; S. cerevisiae expressing SARS-CoV PLpro, growth rescue; control for the full effect not named in the record; Potency, µM (series often up to 32.9 µM), without a hit: at the highest dose activity, positive = growth rescue; also: 0% is about no effect; nearly all actives have a fitted effect of over 55% in size; growth read by luminescence after 48 h
LASV entry inh = qHTS for Inhibitors of binding or entry into cells for Lassa Virus. Lassa virus pseudotype entry inhibition, cell reporter; control for the full effect not named in the record. Potency, µM (top dose mostly 37.9 µM), for inactives: at the highest dose activity change, negative = inhibition, usual class: inhibitors. hit rate 1.2% among 300,000. AID 540256, 2011; active means well fitted inhibition curve with a large enough effect; inconclusive means small, poorly fitted or top-dose-only effect, or effect the other way; inactive means flat fitted curve, though single readings scatter; tested in HEK293 cells; also: % is scaled to controls: 0 for no effect and ±100 for the full control effect; nearly all actives have a fitted effect of over 50% in size; luciferase read-out
Cruzain noTriton = qHTS Assay for Promiscuous and Specific Inhibitors of Cruzain (without detergent). hit rate 2.3% among 200,000. purified cruzain, Z-FR-AMC fluorescence, no detergent. Cruzipain (Trypanosoma cruzi), P25779. Potency, µM, for inactives: max response, negative = inhibition, actives largely listed as inhibitors; active = well fitted curve in the direction sought with a large enough effect; inconclusive = small, poorly fitted or top-dose-only effect, or another doubt; inactive = no such curve, though single readings can be large; an effect the other way counts as inactive or inconclusive;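 also: plate controls were enzyme without inhibitor for no effect and buffer without enzyme for full effect; nearly all actives have a fitted effect of over 40% in size; top concentration of the series not given in the record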
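Purified cruzain at 1.5 nM, pre-incubated 15 min with compound at room temperature in 100 mM sodium acetate pH 5.5, 5 mM DTT, 0.00005% Triton X-100. Reaction started with 2 uM Z-FR-AMC; AMC fluorescence increase over 60 s gives rate.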
2A StopGo = High Throughput Screening for Foot and Mouth Disease Virus Antivirals; human cells with a luciferase reporter of 2A StopGo recoding; control for the full effect not named in the record; Potency, µM (titrated, usually from 57.9 µM), without a hit: top-dose signal change, negative = less light; hit rate 1.2% among 410,000; AID 1159524, 2015; active = well fitted falling curve with a large enough effect; inconclusive = small, poorly fitted or top-dose-only effect; inactive = no such curve, though single readings can be large or run the other way; tested in HEK293T cells; also: % is scaled to controls: 0 for no effect and ±100 for the full control effect; nearly all actives have a fitted effect of over 45% in size; luciferase light after 4 h
RE007 growth inh = qHTS Assay for Inhibitors of the HIV-1 protein Vpr. S. pombe RE007 Vpr strain, BacTiter-Glo ATP luminescence, 24 h; control for the full effect not named in the record. Potency, µM (top dose mostly 92.2 µM), without a hit: top-dose activity change, negative = less growth. hit rate 0.21% among 360,000. AID 651644, 2012; active = well fitted falling curve with a large enough effect; inconclusive = small, poorly fitted or top-dose-only effect; inactive = no such curve, though single readings can be large or run the other way;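 also: % is scaled to controls: 0 for no effect and ±100 for the full control effect; nearly all actives have a fitted effect of over 50% in size; the assay follows cell death caused by Vpr and the record does not say whether a fall means rescue or toxicity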
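Fission yeast RE007 carrying one integrated HIV-1 vpr copy, seeded at OD 0.01 in PMG+AL medium with 23 nL pinned compound. Grown 24 h at 30 degrees; viability read by BacTiter-Glo luminescence after 5 min.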
An asterisk follows results filed as active; u = inconclusive; x = not tested or not shown; & = joins results of further samples; [ ] = another dose, or the depositor's remark. Unless noted, calls follow the shape of the dose curve; as a rule, active means well fitted rising curve with a large enough effect; inconclusive means small, poorly fitted or top-dose-only effect; inactive means no such curve, though single readings can be large or run the other way. Potency is read from the fitted curve at half-maximal effect.

SMILES	MARV entry inh	NS1 inh	Cruzain Triton	SARS PLpro yeast	LASV entry inh	Cruzain noTriton	2A StopGo	RE007 growth inh
COc1cc(OC)cc(C(=O)N[C@H](C(=O)Nc2nc3ccccc3[nH]2)C(C)C)c1	u	8%	x	0%	u	x	u	5%
O=C(CN(C(=O)c1csnn1)c1cccc(C(F)(F)F)c1)NCc1ccc(F)cc1	-20%[46.1 µM]	8%	x	10%	-11%	x	22%	8%
Cc1oc2ccc(O)c(CN3CCCC3)c2c1C(=O)Nc1cccc(Cl)c1C	-11%[46.1 µM]	x	-2.2%	x	9%[46.1 µM]	-4%	0%	x
COc1ccccc1NC(=O)c1cc[n+](C)cc1	x	6%	x	10%	x	x	-6%	-12%
COc1cc(C2NC(=O)N(C)C3=C2C(=O)CCC3)cc(OC)c1OC (centres undefined)	0%	-5%	-1.9%	4%	23%	10%	u	2%
CC(C)(C)c1ccc(Oc2ncccc2NC(=O)c2cccs2)cc1	x	-12%	x	1%	x	x	-30%	30%
CCc1nn(CCCC(=O)N2CCN(c3ccc(OC)cc3)CC2)c(=O)c2cc3occc3n12	-2%&-2%[46.1 µM]	3%	-5.1%	-2%	-9%[46.1 µM]	10%	u	-4%
C=CCO/N=C(/CCC)C1=C(N)CC(C)(C)CC1=O	-14%	0%	x	1%	7%	x	-11%	20%
CCOc1cc(CN2CCN(S(=O)(=O)Cc3ccccc3)CC2)ccc1OC	u	1%	x	-1%	u	x	-17%	-7%
O=C(NCC(O)c1ccc([N+](=O)[O-])cc1)Nc1ccccc1 (centres undefined)	x	0%	x	1%	x	x	-8%	-10%
Cc1onc(-c2ccccc2)c1CNC(=O)Nc1ccccc1	-16%[46.1 µM]	0%	x	-1%	u	x	-9%	17%
Nc1ccc(-c2ncc(-c3ccccc3)o2)cc1	u	1%	x	-3%	u	x	u	-14%
CSc1ccccc1C(=O)OCC(=O)Nc1cccnc1Cl	-8%	x	x	-2%	8%	x	33%[activator]	-16%
CCCNC(=O)CC(NS(=O)(=O)c1ccc(OC)cc1)c1ccco1 (centres undefined)	-5%[46.1 µM]	x	x	-7%	-1%	x	20%	-2%
N#C/C(=C/c1ccc(F)cc1)c1nnc(NC(=O)c2ccccc2)s1	x	-3%	x	-1%	x	x	-14%	2%
COc1ccc(Cn2nnc3c(=O)[nH]c(C4CCCN(C(=O)c5ccccc5Cl)C4)nc32)cc1OC (centres undefined)	-2%[46.1 µM]	x	-4.5%	x	21%[46.1 µM]	u	-15%	x
O=C(/C=C/c1ccccc1Cl)N(Cc1cccs1)C1CCS(=O)(=O)C1 (centres undefined)	x	-8%	x	0%	x	x	-17%	0%
Cc1ccc(-c2c(C(=O)N/N=C/c3cccc(Cl)c3)nnn2-c2nonc2N)cc1	x	25%	x	8%	x	x	-20%	4%
Cc1cccnc1NC(=O)CNC(=O)COc1ccccc1	-15%[46.1 µM]	x	x	-1%	-19%	x	-10%	1%
CC1Oc2ccccc2N(CC(=O)NCCN2CCOCC2)C1=O (centres undefined)	13%[46.1 µM]	1%	x	0%	13%[46.1 µM]	x	1%	-5%
Cc1nn(-c2c(Cl)cc(Cl)cc2Cl)c(=O)c2ccccc12	u	-112%	-5.9%	-4%	u	9%	u	-6%
Cc1ccc(C)c(-c2cc(C(=O)Nc3cccc(C(=O)O)c3)c3ccccc3n2)c1	12%[46.1 µM]	4%	x	1%	19%	x	21%	4%
CCOC(=O)C1=NN(c2ccccc2)C2(S1)SC(C(C)=O)=C(C)N2c1ccccc1 (centres undefined)	u	-4%	-3.4%	2%	u	10%	u	-16%
Cc1ccc(C(=O)OCC(=O)N2CCCc3ccccc32)cc1C	2%	x	x	2%	-3%	x	2%	-8%
NC(=O)c1ccc(Cl)c2ccccc12	u	3%	x	-2%	5%[46.1 µM]	x	8%	6%
O=C(Cc1sc(-c2ccccc2)nc1-c1ccccc1)Nc1ccccc1	-15%	-1%	-0.9%	2%	-1%	u	22%	5%
CC1CC(=O)c2cnc(Nc3ccccc3)nc2C1 (centres undefined)	u	-8%	-1.6%	8%	u	-3%	47%[activator]	7%
COc1ccc(Br)cc1CN(C)C(=O)c1cnc(C)cn1	x	-2%	x	0%	x	x	-5%	13%
COc1ccc(-c2ccc3nnc(SCC(=O)N4CCCC4)n3n2)cc1	0%	x	x	0%	u	x	-14%	-8%
CC(=O)OC1C(O)C(C)OC(OC2C(OC(=O)C3CCC4C(C3)OC3(CC(OC(=O)/C=C/c5ccccc5)C(C)CO3)C43CO3)OC(C)C(O)C2OC(C)=O)C1O (centres undefined)	u	x	x	x	u	x	u	u
Cc1cc(C)cc(OCCSc2nc(-c3cccs3)nc3cc(=O)[nH]n23)c1	x	x	-0.2%	x	-9%[46.1 µM]	6%	-27%	x
COC(=O)c1c(-c2ccc(Cl)cc2)noc1N1CCN(c2cccc(C)c2C)CC1	x	x	4.1%	x	14%[46.1 µM]	6%	u	x
Cc1ccc(C)c(N(CC(=O)NC2CCCC2)C(=O)CCCC(=O)Nc2ccccn2)c1	-26%&-26%	-6%	-0.7%	-2%	-8%	11%	40%[activator]	-7%
COc1cccc(C2=NOC(C(=O)Nc3cc(C)on3)C2)c1 (centres undefined)	0%[46.1 µM]	-5%	x	1%	-11%	x	-13%	5%
CC(=O)c1ccccn1	x	x	5.5%	5%	x	-7%	0%	7%
CCOC(=O)c1c(NC(=O)/C=C/c2ccc3c(c2)OCO3)sc(C)c1CC	-18%	10%	-2.8%	-4%	-9%	-14%	-14%	7%
COC(CN(C)S(=O)(=O)c1cc2c3c(c1)CCN3C(=O)CC2)OC	9%[46.1 µM]	0%	x	-3%	u	x	-10%	-9%
Cc1cc(C)cc(OCc2nnc(SCC(=O)OC(C)C)o2)c1	20%	u	-2.8%	5%	3%	6%	-13%	-12%
COc1ccc(NS(=O)(=O)c2cccs2)cc1S(=O)(=O)N1CCOCC1	-1%[46.1 µM]	3%	x	9%	x	x	45%[activator]	-6%
O=S(=O)(Nc1ccc(F)cc1F)c1ccc(Br)s1	29%[46.1 µM]	x	-6.5%	x	u	-8%	31%[activator]	x
Cc1ccc(C(=O)Oc2oc(-c3ccco3)nc2C=Nc2ccccc2)cc1	-5%	-50%	10µM*	10%	x	13µM*	x	x
CCOC(=O)COc1c(Cl)cc(/C=C2\N=C(C)OC2=O)cc1OC	14%	x	x	x	7%	x	-29%	5%
OCC[C@@H]1C[C@@H](O)[C@H](O)[C@@]2(Cc3ccccc3O2)O1	x	-23%	x	-3%	x	x	-12%	-12%
N=C1S/C(=C\c2ccc(-c3cccc(Cl)c3)o2)C(=O)N1c1nccs1	3.2µM*	9%	0.8%	-13%	u	-25%	-8%	-2%
CCCc1cc(=O)oc2c(C)c(OCC(=O)Nc3ccccn3)ccc12	x	-4%	x	25%	x	x	4%	-14%
CC(C)c1ccccc1NC(=O)CCCC(=O)O	17%	3%	0.3%	-4%	0%	-2%	5%	-5%
Cc1cccc(C)c1-n1c(SCC(=O)N2CC(=O)Nc3ccccc32)nc2ccccc2c1=O	u	u	-11%	2%	-25%	-4%	u	-2%
COc1ccc(CN2C3CCCC2CC(NC(=O)Nc2ccccc2)C3)cc1 (centres undefined)	u	0%	-1.7%	6%	-11%	-6%	-6%	-8%
S=C(NCCc1c[nH]c2ccccc12)NC1CCCCC1	14%[46.1 µM]	x	x	17%	2%	x	53%[activator]	-3%
O=C(NNc1ncnc2c1cnn2-c1ccccc1)c1ccco1	u	x	x	1%	21%	x	19%	8%
CCN(CC(=O)NC(C)(C)C)C(=O)COc1c(Cl)cc(Cl)c2ccc(C)nc12	x	-32%	x	-1%	x	x	-18%	u
Cc1nn(-c2ccccc2)c(Cl)c1/C=N\NC(=O)c1cnccn1	8%	0%	-3.9%	22%	5%	11%	14%	6%
CCc1nn2c(=O)cc(COc3ccc(/C=C(\C#N)C(=O)Nc4ccc(C)cc4)cc3)nc2s1	-3%[46.1 µM]	x	-1.2%	x	8%[46.1 µM]	5%	-9%	x
Cc1ccc(-n2ncc3c(N4CCC(Cc5ccccc5)CC4)ncnc32)cc1	x	x	0.0%	x	25%[46.1 µM]	9%	-28%	x
COc1ccc(S(=O)(=O)N2CCC(NC(=O)c3ccccc3)CC2)cc1	x	3%	x	-2%	x	x	-8%	12%
COc1ccc(C2C(C(=O)NCCCN3CCOCC3)c3ccccc3C(=O)N2c2ccc(OC)cc2)cc1 (centres undefined)	u	x	x	-2%	u	x	10%	9%
CC(=O)Nc1ccc(-c2cn3c(n2)SCC3)cc1	u	2%	x	2%	9%	x	75%[activator]	2%
O=C(COc1ccc2ccccc2c1)N1CCN(C(=O)c2cccs2)CC1	-10%	5%	-2.9%	14%	u	12%	0%	7%
Cc1ccc(NS(=O)(=O)c2cc(C(=O)N3CCN(C)CC3)ccc2C)cc1C	-2%	x	x	0%	-19%	x	12%	-2%
COc1ccc(-n2nc(C(=O)N3CCN(Cc4ccc5c(c4)OCO5)CC3)c3ccccc3c2=O)cc1	10%&10%	-15%	-2.5%	0%	-1%	12%	u	1%
(next part)
SMILES	MARV entry inh	NS1 inh	Cruzain Triton	SARS PLpro yeast	LASV entry inh	Cruzain noTriton	2A StopGo	RE007 growth inh
Cc1nc(N)[nH]c(=O)c1Oc1cccc(C(F)(F)F)c1	-2%[46.1 µM]	0%	x	1%	-10%	x	65%[activator]	-2%
CCN(CC)S(=O)(=O)c1ccc2c(c1)C(=NO)c1cc(S(=O)(=O)N(CC)CC)ccc1-2	u	-2%	-7.2%	3%	u	1%	20µM*	0%
CCCCCn1c(=O)c(C(=O)NCc2ccccn2)c(O)c2ccccc21	u	-75%	-5.7%	-3%	u	23%	-27%	1%
COCCNC(=O)c1onc(CSc2cc(C)cc(C)c2)c1C(=O)NCCOC	x	2%	x	1%	x	x	-5%	0%
